From PubChem BioAssay
PV pol inh: inhibitors of poliovirus RNA polymerase binding and polymerization; % elongation, % (compound at 16.7 µg/mL); hit rate 0.66% among 150,000; poliovirus polymerase elongation, fluorescence polarization; active compounds read low; P03300; in the data active means % elongation below about 90%; further: some results filed as inactive read as strong as hits
Target sequence (P03300 1749-2209 limits assumed): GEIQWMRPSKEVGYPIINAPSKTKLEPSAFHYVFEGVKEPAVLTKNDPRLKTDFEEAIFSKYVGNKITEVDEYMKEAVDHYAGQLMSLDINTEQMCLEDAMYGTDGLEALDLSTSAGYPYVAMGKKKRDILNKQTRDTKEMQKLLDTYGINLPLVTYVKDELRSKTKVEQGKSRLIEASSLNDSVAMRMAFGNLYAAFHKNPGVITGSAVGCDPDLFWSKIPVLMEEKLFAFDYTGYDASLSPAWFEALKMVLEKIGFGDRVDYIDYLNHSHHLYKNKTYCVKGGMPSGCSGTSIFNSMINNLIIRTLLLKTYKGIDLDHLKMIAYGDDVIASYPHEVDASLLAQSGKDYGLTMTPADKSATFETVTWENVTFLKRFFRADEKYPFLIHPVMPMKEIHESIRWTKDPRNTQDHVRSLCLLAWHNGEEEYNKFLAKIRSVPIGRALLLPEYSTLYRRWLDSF
PV pol inh intensity: also measured in PV pol inh; calls as there; % elongation; measured here: total intensity read-out; formula for this scale not given here;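 total fluorescence in place of polarization; lower means less elongation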
Numbers without * were called inactive.

A first look:
`Cc1ccc2scc(N3CCCCC3C)c(=O)c2c1` (centres undefined) gave PV pol inh 110 and PV pol inh intensity 102.
Screening Cc1ccc(C)c(Cn2c3ccccc3c3cnn(CC(=O)NCCC4=CCCCC4)c(=O)c32)c1 returned PV pol inh 106 and PV pol inh intensity 105.

All compounds of this part, from the first entry:
`Cc1ccc2scc(N3CCCCC3C)c(=O)c2c1` (centres undefined) gave PV pol inh 110 and PV pol inh intensity 102.
Screening Cc1ccc(C)c(Cn2c3ccccc3c3cnn(CC(=O)NCCC4=CCCCC4)c(=O)c32)c1 returned PV pol inh 106 and PV pol inh intensity 105.
Screening COc1ccc(CCNC(=O)CCn2c(=O)c3ccccc3n(Cc3ccccc3C)c2=O)cc1OC returned PV pol inh 103 and PV pol inh intensity 105.
Screening O=C(Nc1c2c(nn1-c1ccc(Cl)cc1)CS(=O)(=O)C2)c1ccc(Br)cc1 returned PV pol inh 99 and PV pol inh intensity 88.
`CCN(CC)S(=O)(=O)c1ccc2c(c1)c(=O)c(C(=O)N1CCN(c3ccc(OC)cc3)CC1)cn2C` gave PV pol inh 101 and PV pol inh intensity 101.
COc1cc(OC)c(NC(=O)CCS(=O)(=O)c2ccc3c(c2)oc(=O)n3C)cc1Cl was read as PV pol inh 112 and PV pol inh intensity 113.
For Cc1c(C(=O)Nc2ccc(F)c(F)c2)oc2ccc(S(=O)(=O)N3CCCCC3)cc12 the results were PV pol inh 109 and PV pol inh intensity 108.
`Cc1ccc(-n2c(=O)c3cccnc3n2CC(=O)Nc2cc(Cl)ccc2C)cc1` gave PV pol inh 106 and PV pol inh intensity 104.
For CC1=C(C(=O)OC2CCCCCC2)C(c2cccc(F)c2F)CC(=O)N1 (centres undefined) the results were PV pol inh 107 and PV pol inh intensity 106.
`COc1ccc(NC(=O)CSc2nc(-c3ccc(F)cc3)[nH]c2-c2ccc(C)cc2)cc1OC` gave PV pol inh 108 and PV pol inh intensity 108.
Screening O=C(Nc1ccc2nc(SCC(=O)N3CCOCC3)sc2c1)c1ccc(F)cc1 returned PV pol inh 102 and PV pol inh intensity 103.
Screening CCOC(=O)C1CCN(C(=O)c2cc3sc(C)cc3n2C)CC1 returned PV pol inh 104 and PV pol inh intensity 109.
O=C(c1ccc2c(c1)N(Cc1ccc(F)cc1)C(=O)c1ccccc1S2(=O)=O)N1CCC(Cc2ccccc2)CC1 was read as PV pol inh 111 and PV pol inh intensity 108.
`CCC(O)c1nc2ccccc2n1Cc1cccc(Cl)c1` (centres undefined) gave PV pol inh 112 and PV pol inh intensity 103.
CCC(C)NC(=O)c1cn(CC)c2ccc(S(=O)(=O)N3CCc4ccccc4C3)cc2c1=O (centres undefined) was read as PV pol inh 106 and PV pol inh intensity 109.
`CCOC(=O)N1CCC(NC(=O)c2ccc3c(c2)N(Cc2ccccc2)C(=O)c2ccccc2S3(=O)=O)CC1` gave PV pol inh 104 and PV pol inh intensity 106.
For COc1cc2c(cc1OC)C(COc1ccc3c(C)cc(=O)oc3c1)N(C(=O)c1ccccc1C)CC2 (centres undefined) the results were PV pol inh 107 and PV pol inh intensity 109.
For Cc1ccc(-c2noc(CNC(=O)c3ccccc3)n2)cc1 the results were PV pol inh 103 and PV pol inh intensity 102.
`CCOc1ccccc1NC(=O)CSc1nc2c([nH]c3ccccc32)c(=O)n1-c1ccccc1` gave PV pol inh 105 and PV pol inh intensity 108.
For COc1ccccc1OCC(=O)N1CCC(c2nc3ccccc3o2)CC1 the results were PV pol inh 108 and PV pol inh intensity 103.
For CC(=O)c1cccc(NC(=O)c2nc3ccccc3n(C)c2=O)c1 the results were PV pol inh 110 and PV pol inh intensity 105.
Screening Cc1cc(N2CCN(c3ccccc3F)CC2)n2cnnc2n1 returned PV pol inh 106 and PV pol inh intensity 113.
Screening Cc1ccc(C)c(OCc2nc3ccccc3n2C)c1 returned PV pol inh 104 and PV pol inh intensity 107.
For CCOCCCNC(=O)Cn1ncc2c([nH]c3ccccc32)c1=O the results were PV pol inh 111 and PV pol inh intensity 108.
`Cc1nn(CCC(=O)N2CCN(c3ccccc3F)CC2)c(C)c1S(=O)(=O)N1CCCC1` gave PV pol inh 103 and PV pol inh intensity 103.
Cc1cccc(-c2nnc(SCC(=O)NC3CCCCC3)o2)c1 was read as PV pol inh 102 and PV pol inh intensity 102.
Screening Cc1ccc(NC(=O)c2cc(-c3ccc(Br)s3)nc3ccccc23)cc1F returned PV pol inh 106 and PV pol inh intensity 110.
For CCOc1ccc(CNC(=O)c2cc(=O)[nH]c3ccc(S(=O)(=O)N4CCCC4)cc23)cc1 the results were PV pol inh 118 and PV pol inh intensity 116.
`COc1ccc(CNC(=O)CSc2ncc3c(n2)-c2ccc(Cl)cc2N(Cc2ccccc2)S3(=O)=O)cc1` gave PV pol inh 110 and PV pol inh intensity 115.
`COc1ccc(NC(=O)NCC2CCN(Cc3ccccc3F)CC2)c(OC)c1` gave PV pol inh 110 and PV pol inh intensity 109.
`COc1ccccc1NC(=O)C1=C(C)Nc2ncnn2C1c1sccc1C` (centres undefined) gave PV pol inh 108 and PV pol inh intensity 111.
Screening COc1ccc(CNC(=O)CCS(=O)(=O)c2ccc3c(c2)oc(=O)n3C)cc1 returned PV pol inh 106 and PV pol inh intensity 106.
Screening Cc1ccccc1CNC(=O)C(=O)NCC(c1ccco1)S(=O)(=O)c1cccs1 (centres undefined) returned PV pol inh 106 and PV pol inh intensity 109.
For COC(=O)c1c(-c2ccc(Cl)cc2)noc1N1CCN(c2cccc(C(F)(F)F)c2)CC1 the results were PV pol inh 112 and PV pol inh intensity 114.
Screening CCc1cc2c(cc3c(=O)n(CC(=O)N4CCCCC4)nc(CC)n32)s1 returned PV pol inh 109 and PV pol inh intensity 112.
For Cc1ccc2c(CC(=O)Nc3ccc(S(=O)(=O)N4CCC(C)CC4)cc3)coc2c1 the results were PV pol inh 121 and PV pol inh intensity 120.
Screening Cn1c(=O)n(C)c2cc(N3CCOCC3)c(NC(=O)c3ccc(C(C)(C)C)cc3)cc21 returned PV pol inh 103 and PV pol inh intensity 105.
For COc1ccc(C)cc1NC(=O)CC1NCCNC1=O (centres undefined) the results were PV pol inh 104 and PV pol inh intensity 106.
For CCOc1ccccc1NC(=O)Nc1ccccc1OCc1cc(=O)n2ccccc2n1 the results were PV pol inh 107 and PV pol inh intensity 108.
Cc1ccc(C(=O)c2sc(Nc3ccc(F)cc3)c(C#N)c2N)cc1 was read as PV pol inh 77* and PV pol inh intensity 74*.
`CCc1ccccc1NC(=O)c1nc(-c2ccncc2)no1` gave PV pol inh 101 and PV pol inh intensity 106.
O=C(Cn1cc(C(=O)C2CCCCC2)c2ccccc21)Nc1ccccc1Cl was read as PV pol inh 111 and PV pol inh intensity 112.
Screening CC(=O)Nc1ccccc1-c1nc2ccccc2n(CC(=O)c2ccc(Br)cc2)c1=O returned PV pol inh 99 and PV pol inh intensity 107.
Screening COc1cc(C(=O)NCC(c2ccc(Cl)cc2)N2CCOCC2)cc(OC)c1OC (centres undefined) returned PV pol inh 105 and PV pol inh intensity 99.
Screening CN(C(=O)CCc1nc(-c2ccccc2F)no1)c1ccc(Cl)cc1 returned PV pol inh 101 and PV pol inh intensity 103.
`CCOC(=O)c1c(S(=O)(=O)N2CCN(c3cccc(C(F)(F)F)c3)CC2)c(C)n(C)c1C` gave PV pol inh 111 and PV pol inh intensity 101.
CCCCc1nc2ccccc2n2c(-c3ccc(C)cc3)c3c(=O)n(C)c(=O)n(C)c3c12 was read as PV pol inh 106 and PV pol inh intensity 111.
For O=C(Nc1ccc(F)cc1F)c1ccc2c(=O)n3c(nc2c1)CCCCC3 the results were PV pol inh 103 and PV pol inh intensity 104.
For CCOc1ccccc1C1CC(=O)Oc2c1c(=O)n(C)c1ccccc21 (centres undefined) the results were PV pol inh 106 and PV pol inh intensity 106.
`O=C1CCSC2(C(=O)N(Cc3ccc(F)cc3)c3ccccc32)N1c1ccc(F)c(F)c1` (centres undefined) gave PV pol inh 105 and PV pol inh intensity 101.

Fetched by structure from the entries so far (2):
Screening CCOC(=O)C1CCN(C(=O)c2cc3sc(C)cc3n2C)CC1 returned PV pol inh 104 and PV pol inh intensity 109.
`O=C1CCSC2(C(=O)N(Cc3ccc(F)cc3)c3ccccc32)N1c1ccc(F)c(F)c1` (centres undefined) gave PV pol inh 105 and PV pol inh intensity 101.

The listing continues:
`CCc1ccc(NC(=O)CSc2nnc(CC)c(CC)n2)cc1` gave PV pol inh 102 and PV pol inh intensity 107.
`CCOC(=O)c1oc2ccc(S(=O)(=O)n3nc(-c4cc(OCC)c(OCC)c(OCC)c4)cc3N)cc2c1C` gave PV pol inh 108 and PV pol inh intensity 109.
For CCN1CCN(C(c2ccc(F)cc2)c2c(O)cc(C)n(CCOC)c2=O)CC1 (centres undefined) the results were PV pol inh 109 and PV pol inh intensity 116.
`Cc1ccc(CN(C(=O)COc2ccccc2[N+](=O)[O-])c2ccccn2)o1` gave PV pol inh 110 and PV pol inh intensity 113.
`O=C(NCCc1ccccc1)c1ccc(Cn2c(=O)c3cccn3c3cccnc32)cc1` gave PV pol inh 97 and PV pol inh intensity 97.
For CCOC(=O)C1CCN(C(c2ccccc2)c2c(O)cc(C)n(Cc3ccco3)c2=O)CC1 (centres undefined) the results were PV pol inh 111 and PV pol inh intensity 112.
`Cc1cn2c(=O)cc(COc3cccc(NC(=O)c4ccccc4C)c3)nc2s1` gave PV pol inh 104 and PV pol inh intensity 107.
O=C(Cn1nc(-c2ccc(Cl)cc2)c2ccccc2c1=O)Nc1cccc(Br)c1 was read as PV pol inh 108 and PV pol inh intensity 109.
Cc1ccc2nc(N3CCN(C(=O)C4COc5ccccc5O4)CC3)sc2c1 (centres undefined) was read as PV pol inh 106 and PV pol inh intensity 103.
COc1ccc(NC(=O)CN(C)S(=O)(=O)c2ccc3[nH]c4c(c3c2)CCCC4)cc1OC was read as PV pol inh 101 and PV pol inh intensity 110.
For Cc1ccccc1OCC(=O)OCc1cc(=O)n2nc(-c3cccs3)sc2n1 the results were PV pol inh 107 and PV pol inh intensity 110.
O=C(NCc1ccccc1Cl)c1cc2c(s1)-c1ccc(Cl)cc1SC2 was read as PV pol inh 107 and PV pol inh intensity 109.
CCOc1ccc(NC2SC(=O)N(Cc3ccccc3)C2=O)cc1 (centres undefined) was read as PV pol inh 108 and PV pol inh intensity 108.
For CCC1CCCCN1C(=O)c1nn(-c2ccc(C)cc2)c(=O)c2c1c1ccccc1n2C (centres undefined) the results were PV pol inh 113 and PV pol inh intensity 109.
Screening O=c1[nH]c(SCc2ccc(F)cc2)nc2c1CCCC2 returned PV pol inh 115 and PV pol inh intensity 114.
Cc1ccc(CNC(=O)c2cc3cc(C)ccc3n2C)cc1 was read as PV pol inh 100 and PV pol inh intensity 99.
For CCOC(=O)c1ccccc1NC(=O)COC(=O)CC(C)(C)CC1=NS(=O)(=O)c2ccccc2N1 the results were PV pol inh 113 and PV pol inh intensity 109.
COc1ccc(CNC(=O)c2cc(-c3cccs3)nc3ccccc23)c(OC)c1 was read as PV pol inh 105 and PV pol inh intensity 110.
`Cc1c(C(=O)N2CCCC2)oc2c1-c1nn(CC(=O)NCc3ccc(OC(C)C)cc3)cc1CC2` gave PV pol inh 108 and PV pol inh intensity 103.
COc1cccc(C2C(C(=O)Nc3ccc(C)cc3C)=C(C)Nc3c(C(=O)Nc4cccc(C)c4)cnn32)c1OC (centres undefined) was read as PV pol inh 113 and PV pol inh intensity 113.

Among those listed so far, these have a thiophene ring, fused or not.
Screening CCOC(=O)C1CCN(C(=O)c2cc3sc(C)cc3n2C)CC1 returned PV pol inh 104 and PV pol inh intensity 109.
Screening Cc1ccc(NC(=O)c2cc(-c3ccc(Br)s3)nc3ccccc23)cc1F returned PV pol inh 106 and PV pol inh intensity 110.
`COc1ccccc1NC(=O)C1=C(C)Nc2ncnn2C1c1sccc1C` (centres undefined) gave PV pol inh 108 and PV pol inh intensity 111.
Screening Cc1ccccc1CNC(=O)C(=O)NCC(c1ccco1)S(=O)(=O)c1cccs1 (centres undefined) returned PV pol inh 106 and PV pol inh intensity 109.
Screening CCc1cc2c(cc3c(=O)n(CC(=O)N4CCCCC4)nc(CC)n32)s1 returned PV pol inh 109 and PV pol inh intensity 112.
Cc1ccc(C(=O)c2sc(Nc3ccc(F)cc3)c(C#N)c2N)cc1 was read as PV pol inh 77* and PV pol inh intensity 74*.
For Cc1ccccc1OCC(=O)OCc1cc(=O)n2nc(-c3cccs3)sc2n1 the results were PV pol inh 107 and PV pol inh intensity 110.
O=C(NCc1ccccc1Cl)c1cc2c(s1)-c1ccc(Cl)cc1SC2 was read as PV pol inh 107 and PV pol inh intensity 109.
COc1ccc(CNC(=O)c2cc(-c3cccs3)nc3ccccc23)c(OC)c1 was read as PV pol inh 105 and PV pol inh intensity 110.

The results go on:
Screening CCCCn1c(SCC(=O)c2ccccc2)nc2c(sc3ccccc32)c1=O returned PV pol inh 104 and PV pol inh intensity 107.
Screening O=C(CN1CCSc2ccccc21)NCc1ccccc1F returned PV pol inh 110 and PV pol inh intensity 110.
`CCn1cc(C(=O)NCCCN2CCCC(C)C2)c(=O)c2cc(S(=O)(=O)N(C)C3CCCCC3)ccc21` (centres undefined) gave PV pol inh 110 and PV pol inh intensity 112.
`Cc1ccc2nc(CSc3nnc(NC(=O)C(C)C)s3)cc(=O)n2c1` gave PV pol inh 109 and PV pol inh intensity 105.
Screening Cc1ccc(NC(=O)CSc2nc(C)c(Cc3ccccc3)c(=O)[nH]2)cc1C returned PV pol inh 104 and PV pol inh intensity 93.
Screening COc1ccc(C(=O)/C=C/c2cn(CC(O)CN(CC(C)C)CC(C)C)c3ccccc23)cc1 (centres undefined) returned PV pol inh 107 and PV pol inh intensity 112.
Screening CCC(C)NC(=O)Cn1c(=O)n(-c2ccc(Cl)cc2)c(=O)c2c3c(sc21)CCCC3 (centres undefined) returned PV pol inh 111 and PV pol inh intensity 110.
COc1ccc(N2CC(NC(=O)c3ccc(OC(C)C)cc3)CC2=O)cc1 (centres undefined) was read as PV pol inh 108 and PV pol inh intensity 111.
For Cc1ccc(CNS(=O)(=O)c2cc3[nH]c(=O)c(=O)[nH]c3cc2C)cc1 the results were PV pol inh 105 and PV pol inh intensity 105.
Screening COC(=O)CN1C(=O)CSc2ccc(S(=O)(=O)Nc3ccc(C)c(Cl)c3)cc21 returned PV pol inh 107 and PV pol inh intensity 113.
`Cc1cccc(-n2c(C)cc(C(=O)C(=O)Nc3nncs3)c2C)c1` gave PV pol inh 119 and PV pol inh intensity 126.

A portion of the library; count on the stated rates, not on these rows.
